Compound activity as filed in PubChem BioAssay.
Methyltransferases: Primary Screen for Target Class Profiling of Small Molecule Inhibitors of Methyltransferases. 3.9% of 25,000 active. calls only at 40 µM. purified enzyme, MTase-Glo SAH luminescence; hits give low values; active = -50% or lower on at least one of six enzymes; inconclusive = the cases between; inactive = as a rule above -30% on all six;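 further: enzymes were COMT GAMT GNMT HNMT NNMT and PNMT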
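Each enzyme was reacted with SAM and its substrate, with compounds tested once at 40 uM; SAH formed was read by MTase-Glo luminescence.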
Calls only. On the % scale 0 is the no-effect control and ±100 the full control effect. Some of the compounds tested; the hit share may differ from the screen's.

`O=C(Nc1ccc2n(c1=O)C[C@H]1C[C@@H]2CN(CC2CCCCC2)C1)C1CCCCC1` gave Methyltransferases inactive.
For CCN1C(=O)CCNCC12CCOCC2 the results were Methyltransferases inactive.
Screening O=C(Nc1ccccc1F)N1Cc2ccccc2-n2cccc2C1c1cccs1 (centres undefined) returned Methyltransferases inactive.
For C=C[C@H]1[C@H](O[C@@H]2O[C@H](CO)[C@@H](O)[C@H](O)[C@H]2O)OC=C2C(=O)OCC[C@H]21 the results were Methyltransferases inactive.
Screening O=C(Nc1ccc2n(c1=O)C[C@H]1C[C@@H]2CN(C(=O)c2ccccn2)C1)C1CCCCC1 returned Methyltransferases inactive.
For C[C@]12CC[C@@H](O)C[C@@H]1CC[C@@H]1[C@@H]2CC[C@]2(C)C(=O)[C@@H](Br)C[C@@H]12 the results were Methyltransferases inactive.
For O=C(O)CNC(=O)c1c(O)c2ccccc2n(Cc2ccccc2)c1=O the results were Methyltransferases inconclusive.
`C[C@H]1O[C@@H](O[C@H]2[C@@H](O)C[C@H](O[C@H]3[C@@H](O)C[C@H](O[C@H]4CC[C@@]5(C)[C@H](CC[C@@H]6[C@@H]5CC[C@]5(C)[C@@H](C7=CC(=O)OC7)CC[C@]65O)C4)O[C@@H]3C)O[C@@H]2C)C[C@H](O)[C@@H]1O` gave Methyltransferases inconclusive.
For C=CCN1CCC2(C)c3cc(O)ccc3C[C@H]1[C@H]2C the results were Methyltransferases active.
O=C(Nc1nccs1)[C@H]1CN2CC[C@H]1C[C@@H]2Cn1cc(C2(O)CCCCC2)nn1 was read as Methyltransferases inactive.
Screening CCOC(=O)Nc1ccc(NCc2ccc(F)cc2)cc1N returned Methyltransferases inactive.
`CO[C@H]1C[C@H](O[C@H]2CC[C@@]3(C)C(=CCC4C3CC[C@]3(C)[C@@H](C5=CC(=O)OC5)CC[C@]43O)C2)O[C@@H](C)[C@@H]1O[C@@H]1O[C@H](CO[C@@H]2O[C@H](CO)[C@@H](O)[C@H](O)[C@H]2O)[C@@H](O)[C@H](O)[C@H]1O` (some centres undefined) gave Methyltransferases inactive.
CCc1ccc(C2c3cccn3-c3ccccc3CN2C(=O)Nc2cc(C)ccc2OC)cc1 (centres undefined) was read as Methyltransferases inactive.
CS(=O)(=O)N1C[C@H]2CCN(Cc3ccc[nH]3)C[C@H]21 was read as Methyltransferases inactive.
Screening CSc1ccc(C2c3cccn3-c3ccccc3CN2C(=O)NCCC(C)C)cc1 (centres undefined) returned Methyltransferases inactive.
`C[C@]12CC[C@@H](O[C@@H]3O[C@H](CO)[C@@H](O)[C@H](O)[C@H]3O)C[C@@]1(O)CCC1C2CC[C@]2(C)[C@@H](C3=CC(=O)OC3)CC[C@]12O` (some centres undefined) gave Methyltransferases inactive.
`NC(=O)[C@@H](CC1CC1)[C@@H](CCC(F)(F)F)C(=O)N[C@H]1N=C(c2ccccc2)c2cccc(F)c2NC1=O` gave Methyltransferases inactive.
`Nc1ccc(CCN2CCN(c3cccc(C(F)(F)F)c3)CC2)cc1` gave Methyltransferases inactive.
Screening C[C@H]1O[C@@H](O[C@H]2CC[C@]3(CO)C4CC[C@]5(C)[C@@H](C6=CC(=O)OC6)CC[C@]5(O)[C@@H]4CC[C@H]3C2)[C@H](O)[C@H](O)[C@@H]1O[C@@H]1O[C@H](CO)[C@@H](O)[C@H](O)[C@H]1O (some centres undefined) returned Methyltransferases active.
Screening CCOc1ccc(C2c3cccn3-c3ccccc3CN2C(=O)NC2CCCC2)cc1 (centres undefined) returned Methyltransferases inactive.
Cc1cccnc1CN1CCN2C(=O)N(c3ccccc3)C[C@H]2C1 was read as Methyltransferases inactive.
Cc1ccccc1CN1CCC(N2CCC(n3c(=O)[nH]c4ccccc43)CC2)CC1 was read as Methyltransferases inactive.
For COc1ccc(OC)c(NC(=O)N2Cc3ccccc3-n3cccc3C2c2ccc(C)cc2)c1 (centres undefined) the results were Methyltransferases inactive.
CCOc1ccc(NC(=O)N2Cc3ccccc3-n3cccc3C2c2ccccc2Cl)cc1 (centres undefined) was read as Methyltransferases inactive.
O=C(NCCN1CCC2(CC1)C(=O)NCN2c1cccc(F)c1)c1ccc2ccccc2c1 was read as Methyltransferases inconclusive.
For COc1ccc(C2c3cccn3-c3ccccc3CN2C(=O)NCc2cccc(OC)c2)cc1 (centres undefined) the results were Methyltransferases inactive.
For CP(=O)(O)C1=CCNCC1 the results were Methyltransferases inactive.
Cc1cccc(C2c3cccn3-c3ccccc3CN2C(=O)NC(C)C)c1 (centres undefined) was read as Methyltransferases inactive.
`Cc1cccc(C2c3cccn3-c3ccccc3CN2C(=O)Nc2cc(Cl)ccc2C)c1` (centres undefined) gave Methyltransferases inactive.
Screening O=C(Nc1cccc(Cl)c1)N1Cc2ccccc2-n2cccc2C1c1cccs1 (centres undefined) returned Methyltransferases inactive.
O=C(NCc1ccccc1)N1Cc2ccccc2-n2cccc2C1c1ccccc1Cl (centres undefined) was read as Methyltransferases inactive.
`CCOc1ccc2c(n1)CCNC2` gave Methyltransferases inactive.
Screening NC(N)=NOCCC(N)C(=O)O (centres undefined) returned Methyltransferases inactive.
Screening Cc1c(Cl)c(OCC(=O)N2CCN(C)CC2)nc2sc(C(=O)NC3CC3)c(N)c12 returned Methyltransferases inactive.
`Cc1cccc(NC(=O)N2Cc3ccccc3-n3cccc3C2c2ccccc2)c1C` (centres undefined) gave Methyltransferases inactive.
O=C(Nc1ccccc1F)N1Cc2ccccc2-n2cccc2C1c1ccccc1Cl (centres undefined) was read as Methyltransferases inactive.
CNCCc1ccc(O)c(O)c1 was read as Methyltransferases inconclusive.
For O=C1CO[C@H]2CN(Cc3ccccc3)C[C@H]2N1Cc1cccnc1 the results were Methyltransferases inactive.
Screening COc1ccc(NC(=O)N2Cc3ccccc3-n3cccc3C2c2cccs2)cc1OC (centres undefined) returned Methyltransferases inactive.
CCc1ccc(NC(=O)N2Cc3ccccc3-n3cccc3C2C(C)C)cc1 (centres undefined) was read as Methyltransferases inactive.
CC[C@H]1C2CC3[C@@H]4N(C)c5ccccc5[C@]45C[C@@H]([C@H]2[C@H]5O)N3[C@H]1O was read as Methyltransferases inactive.
Cc1ccc(NC(=O)N2Cc3ccccc3-n3cccc3C2c2ccc(Cl)cc2)c(C)c1 (centres undefined) was read as Methyltransferases inactive.
For O=C(Nc1ccccc1C(F)(F)F)N1Cc2ccccc2-n2cccc2C1c1cccs1 (centres undefined) the results were Methyltransferases inactive.
`CC(N)Cc1c[nH]c2ccc(OCc3cccs3)cc12` (centres undefined) gave Methyltransferases inactive.
CCOC(=O)c1ccc(-c2ccc(OC(=O)N(C)Cc3cccc(-c4ccncc4)c3)cc2)cc1 was read as Methyltransferases inactive.
Screening COc1ccc(Cl)cc1NC(=O)N1Cc2ccccc2-n2cccc2C1C (centres undefined) returned Methyltransferases inactive.
Screening FC(F)(F)CN1C2CCC1CN(c1nnc(Cl)c3ccccc13)C2 returned Methyltransferases inactive.
Screening COc1ccc(OC)c(NC(=O)N2Cc3ccccc3-n3cccc3C2C)c1 (centres undefined) returned Methyltransferases inactive.
CCC1c2cccn2-c2ccccc2CN1C(=O)Nc1ccccc1OC (centres undefined) was read as Methyltransferases inactive.
Screening CN(C)c1ccc(C2c3cccn3-c3ccccc3CN2C(=O)Nc2ccc3c(c2)OCCO3)cc1 (centres undefined) returned Methyltransferases inactive.
For COCCN1C(=O)CS(=O)(=O)C12CCNCC2 the results were Methyltransferases inactive.
COc1ccc(C2c3cccn3-c3ccccc3CN2C(=O)Nc2ccccc2Cl)cc1OC (centres undefined) was read as Methyltransferases inactive.
`Cc1ccc(NC(=O)N2Cc3ccccc3-n3cccc3C2C(C)C)cc1Cl` (centres undefined) gave Methyltransferases inactive.
For CC(CCc1ccc(O)cc1)O[C@@H]1O[C@H](CO[C@H]2OC[C@](O)(CO)[C@H]2O)[C@@H](O)[C@H](O)[C@H]1O (some centres undefined) the results were Methyltransferases inactive.
For CCOC(=O)c1ccccc1NC(=O)N1Cc2ccccc2-n2cccc2C1C (centres undefined) the results were Methyltransferases inactive.
`COC(=O)N1CCN(C(=O)Cc2ccc(Cl)c(Cl)c2)[C@@H](CN2CCCC2)C1` gave Methyltransferases inconclusive.
`CCCN(CCC)[C@@H]1CCc2cccc(O)c2C1` gave Methyltransferases inactive.
For COc1ccc(Cl)cc1NC(=O)N1Cc2ccccc2-n2cccc2C1c1ccccc1 (centres undefined) the results were Methyltransferases inactive.
Cc1cc(C)n(CCC(=O)N2[C@H]3CC[C@@H]2c2cnc(-c4ccccc4)nc2C3)n1 was read as Methyltransferases inactive.
`Oc1ccc2c3c1O[C@H]1c4[nH]c5c(c4C[C@@]4(O)[C@@H](C2)N(CC2CC2)CC[C@]314)C[C@@]1(O)[C@H]2Cc3ccc(O)c4c3[C@@]1(CCN2CC1CC1)[C@H]5O4` gave Methyltransferases inconclusive.
CCOc1ccc(NC(=O)N2Cc3ccccc3-n3cccc3C2c2cccc(C)c2)cc1 (centres undefined) was read as Methyltransferases inactive.
COc1ccc(Cl)cc1NC(=O)N1Cc2ccccc2-n2cccc2C1c1ccc(N(C)C)cc1 (centres undefined) was read as Methyltransferases inactive.
Screening Cc1c(Cl)cccc1NC(=O)N1Cc2ccccc2-n2cccc2C1C(C)C (centres undefined) returned Methyltransferases inactive.
For O=c1c(C2CCCCC2)ccc2n1C[C@H]1C[C@@H]2CN(S(=O)(=O)c2ccccc2)C1 the results were Methyltransferases inactive.
For Cc1ccc(C2c3cccn3-c3ccccc3CN2C(=O)NCc2ccccc2)cc1 (centres undefined) the results were Methyltransferases inactive.
`CC(=O)O[C@H]1C(=O)[C@]2(C)C(O)C[C@H]3OC[C@@]3(OC(C)=O)[C@H]2[C@H](OC(=O)c2ccccc2)[C@]2(O)C[C@H](O)C(C)=C1C2(C)C` (some centres undefined) gave Methyltransferases inactive.
COc1cccc([C@@H]2CCN(Cc3[nH]c4ccccc4c3C)C[C@H]2O)c1 was read as Methyltransferases inactive.
Screening Nc1ncccc1CN1CC[C@H]2NCCC[C@]2(C(=O)O)C1 returned Methyltransferases inactive.
`CCC1c2cccn2-c2ccccc2CN1C(=O)Nc1ccc(C)cc1` (centres undefined) gave Methyltransferases inactive.
Screening C[C@@]12C[C@@H](c3ccoc3)OC(=O)C1CC[C@]1(C)[C@H]2[C@H]2C=C[C@]1(O)C(=O)O2 (some centres undefined) returned Methyltransferases inactive.
`CCc1ccc(NC(=O)N2Cc3ccccc3-n3cccc3C2c2ccc(OC)cc2)cc1` (centres undefined) gave Methyltransferases inactive.
CCC1c2cccn2-c2ccccc2CN1C(=O)NCCC(C)C (centres undefined) was read as Methyltransferases inactive.

Two compounds drawn at random from the list so far:
CCC1c2cccn2-c2ccccc2CN1C(=O)NCCC(C)C (centres undefined) was read as Methyltransferases inactive.
For O=c1c(C2CCCCC2)ccc2n1C[C@H]1C[C@@H]2CN(S(=O)(=O)c2ccccc2)C1 the results were Methyltransferases inactive.

(more compounds)
COc1cccc(NC(=O)N2Cc3ccccc3-n3cccc3C2c2cccc(C)c2)c1 (centres undefined) was read as Methyltransferases inactive.
C=C1[C@@H]2CC[C@@]3(C)[C@H](c4ccoc4)OC(=O)C[C@]13O[C@H]1CC(=O)C(C)(C)[C@H](C(OC(C)=O)C(=O)OC)[C@]12C (some centres undefined) was read as Methyltransferases inactive.
Screening O=C(Nc1ccc2c(c1)OCCO2)N1Cc2ccccc2-n2cccc2C1c1cccs1 (centres undefined) returned Methyltransferases inactive.
For O=C(Nc1ccccc1Cl)N1Cc2ccccc2-n2cccc2C1c1ccc(F)cc1 (centres undefined) the results were Methyltransferases inactive.
For CCc1ccc(C2c3cccn3-c3ccccc3CN2C(=O)NCc2ccc(C)cc2)cc1 (centres undefined) the results were Methyltransferases inactive.

In the list so far, 13 contain an aryl methoxy group.
CCc1ccc(C2c3cccn3-c3ccccc3CN2C(=O)Nc2cc(C)ccc2OC)cc1 (centres undefined) was read as Methyltransferases inactive.
For COc1ccc(OC)c(NC(=O)N2Cc3ccccc3-n3cccc3C2c2ccc(C)cc2)c1 (centres undefined) the results were Methyltransferases inactive.
For COc1ccc(C2c3cccn3-c3ccccc3CN2C(=O)NCc2cccc(OC)c2)cc1 (centres undefined) the results were Methyltransferases inactive.
Screening COc1ccc(NC(=O)N2Cc3ccccc3-n3cccc3C2c2cccs2)cc1OC (centres undefined) returned Methyltransferases inactive.
Screening COc1ccc(Cl)cc1NC(=O)N1Cc2ccccc2-n2cccc2C1C (centres undefined) returned Methyltransferases inactive.
Screening COc1ccc(OC)c(NC(=O)N2Cc3ccccc3-n3cccc3C2C)c1 (centres undefined) returned Methyltransferases inactive.
CCC1c2cccn2-c2ccccc2CN1C(=O)Nc1ccccc1OC (centres undefined) was read as Methyltransferases inactive.
COc1ccc(C2c3cccn3-c3ccccc3CN2C(=O)Nc2ccccc2Cl)cc1OC (centres undefined) was read as Methyltransferases inactive.
For COc1ccc(Cl)cc1NC(=O)N1Cc2ccccc2-n2cccc2C1c1ccccc1 (centres undefined) the results were Methyltransferases inactive.
COc1ccc(Cl)cc1NC(=O)N1Cc2ccccc2-n2cccc2C1c1ccc(N(C)C)cc1 (centres undefined) was read as Methyltransferases inactive.
COc1cccc([C@@H]2CCN(Cc3[nH]c4ccccc4c3C)C[C@H]2O)c1 was read as Methyltransferases inactive.
`CCc1ccc(NC(=O)N2Cc3ccccc3-n3cccc3C2c2ccc(OC)cc2)cc1` (centres undefined) gave Methyltransferases inactive.
COc1cccc(NC(=O)N2Cc3ccccc3-n3cccc3C2c2cccc(C)c2)c1 (centres undefined) was read as Methyltransferases inactive.
